Source: PubChem
Resorufin autofl – compounds fluorescent in resorufin spectral region; Compound fluorescence, resorufin region 547/598 nm, buffer; stronger effect = higher value; max dye-equivalent concentration, M; 59,000 compounds, 0.04% hits; active = above 10 nM dye equivalent; inconclusive = 1 to 10 nM; inactive = 1 nM or less; a few of its hits are not listed in these tables; also: highest value over a series up to 38 µM
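Tris 100 mM pH 8.0; compound added, 15 min RT; CCD imager read, ex 547 nm/em 598 nm; signal normalized to resorufin standard curve (six concentrations per plate) as dye-equivalent concentration.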
A647 autofl – A647 region autofluorescence. max dye-equivalent concentration, M. 59,000 tested, under 10 active. Compound fluorescence, A647 channel (570/671 nm), Tris buffer; active means above 1 µM dye equivalent; inconclusive means 0.1 to 1 µM; inactive means 0.1 µM or less;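 also: values scaled relative to a standard on each plate; highest value over a series up to 38 µM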
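Tris 100 mM pH 8.0; cpd + A647 stds pin-transferred; 15 min RT; CCD imager, ex 570/em 671. Output = A647-equivalent conc. per cpd conc.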
TSHR ag – activates the human thyroid stimulating hormone receptor; HEK293-CNG-TSHR cells (CNG channel as cAMP sensor), membrane potential dye, cAMP; Potency, µM (series often up to 57.1 µM), for inactives: at the top dose activation, hits mostly activators; 73,000 compounds, 0.48% hits; AID 926; active = well fitted activation curve of enough size with the parental cells flat; inconclusive = any curve in the parental cells; inactive = parental cells flat and receptor cells flat or falling; also: potency is read from the fitted curve at half-maximal effect; % of control where 0% means no effect; weak receptor curves with flat parental cells got no call and are not listed
Target sequence (P16473 whole entry, looked up): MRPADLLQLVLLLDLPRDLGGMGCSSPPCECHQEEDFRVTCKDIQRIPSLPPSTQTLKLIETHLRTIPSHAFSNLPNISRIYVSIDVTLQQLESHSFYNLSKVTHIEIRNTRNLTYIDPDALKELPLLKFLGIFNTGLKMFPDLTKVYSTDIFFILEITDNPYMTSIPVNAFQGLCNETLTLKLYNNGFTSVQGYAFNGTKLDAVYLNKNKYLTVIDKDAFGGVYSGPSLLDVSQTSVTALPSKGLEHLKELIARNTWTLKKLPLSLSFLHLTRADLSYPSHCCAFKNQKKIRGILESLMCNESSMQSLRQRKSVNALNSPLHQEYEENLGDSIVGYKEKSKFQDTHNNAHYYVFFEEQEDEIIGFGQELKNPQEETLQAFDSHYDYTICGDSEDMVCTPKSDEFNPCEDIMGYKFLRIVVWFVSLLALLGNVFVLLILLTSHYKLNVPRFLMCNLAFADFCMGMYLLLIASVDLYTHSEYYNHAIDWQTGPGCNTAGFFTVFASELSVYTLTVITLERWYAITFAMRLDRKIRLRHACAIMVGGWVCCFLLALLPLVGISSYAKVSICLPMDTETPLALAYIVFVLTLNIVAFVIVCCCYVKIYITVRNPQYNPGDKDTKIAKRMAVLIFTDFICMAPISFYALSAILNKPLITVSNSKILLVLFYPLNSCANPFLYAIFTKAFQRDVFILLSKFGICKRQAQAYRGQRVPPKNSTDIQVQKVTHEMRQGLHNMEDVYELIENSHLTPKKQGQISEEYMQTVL
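HEK 293 cells stably expressing TSHR and a modified CNG channel, with CNG-only parental cells as counterscreen, were preloaded 60 min at room temperature with membrane potential dye containing 100 uM RO 20-1724. Compound exposure was 30 min, and depolarization was read as fluorescence at 590 nm.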
AID923 – qHTS Assay for Allosteric/Competitive Inhibitors of Caspase-1: Spectroscopic Profiling in AFC Spectral Region; compound fluorescence, AFC spectral region (405/520 nm); almost no hit is shown here; Potency, µM (top dose mostly 57.5 µM), without a hit: top-dose fluorescence increase, most hits filed as activators; 75,000 compounds, 1.1% hits; active = well fitted activation curve with a large enough effect; inconclusive = small, poorly fitted or top-dose-only effect;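 also: potency is read from the fitted curve at half-maximal effect; 0% is about no effect; scaled to a free AFC standard on each plate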
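Compound autofluorescence profiled at 405 nm ex/520 nm em during kinetic caspase 1 run (50 nM enzyme, 5 uM Ac-WEHD-AFC, HEPES pH 7.5, 10 mM DTT). Titration up to 57 uM; baseline from regression intercept, normalized to AFC standard curve.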
A488 fluor – compound fluoresces in the A488 spectral region; compound autofluorescence, A488 spectral region, dye equivalency; stronger effect = higher value; 59,000 compounds, 0.1% hits; max dye equivalency, M; active = above 10 nM dye equivalent; inconclusive = 1 to 10 nM; inactive = 1 nM or less; about half of its hits are not listed in these tables;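 also: highest value over a series up to 38 µM; compound alone in buffer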
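Compound autofluorescence was read in 100 mM Tris pH 8.0 after 15 min at room temperature, ex 480 nm/em 540 nm. Intensities were converted to A488 dye-equivalent concentration using an on-plate six-point A488 standard curve.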
* marks the source's active call; other numbers are inactive results; i = inactive; ? = inconclusive; . = no result given; [ ] = remark or other dose. The list is partial; the hit share may differ from the screen's.

| molecule | Resorufin autofl | TSHR ag | A488 fluor | AID923 | A647 autofl |
| --- | --- | --- | --- | --- | --- |
| CCOc1ccc(-c2nc(-c3ccc(OC)c(OC)c3)no2)cc1OCC | i | -3% | i | -0.7% | 5.1e-09 |
| COc1ccc(-c2cc(C(=O)NCc3cccs3)no2)cc1OC | . | 30% | . | -3.0% | . |
| Cc1ccc2c(c1)cc(CN(CCc1ccccc1)C(=O)N1CCOCC1)c1nnnn12 | i | . | i | 3.1% | 2.3e-09 |
| Cc1ccc(C)c(N2CCN(C(=O)c3ccc(CS(=O)(=O)c4ccccc4C)o3)CC2)c1 | i | ? | i | 0.8% | 1e-09 |
| Cc1ccccc1C(=O)Nc1ccc(Br)cn1 | . | 17%[11.4 µM] | . | 0.1% | . |
| COc1ccc(OC)c([C@H](O)CNC(=O)CN)c1 | i | . | i | -2.2%[25.7 µM] | 1.3e-08 |
| CCn1c(SCc2nc3ccccc3s2)nc2cc(S(=O)(=O)N3CCOCC3)ccc21 | i | . | i | 1.8% | 3.3e-09 |
| O=C(NCc1ccco1)c1ccc(OCC2CCCO2)cc1 (stereo not given) | i | ? | i | 1.3% | 1e-09 |
| O=C(Nc1ccc2oc(-c3cccnc3)nc2c1)c1cccnc1 | i | 1% | i | 1.3% | 1e-08 |
| CCc1cc2c(=O)c(-c3nc4ccccc4[nH]3)coc2cc1OC(=O)N1CCOCC1 | i | . | i | . | 1e-09 |
| Fc1ccc(OCc2nn3cnnc3s2)cc1 | i | -2% | i | 1.2% | 1.3e-08 |
| O=C(CC12CC3CC(CC(C3)C1)C2)N1CCOCC1 | . | -2% | . | -0.1% | . |

Compound profiles, as listed above. Order of screens: Resorufin autofl | TSHR ag | A488 fluor | AID923 | A647 autofl
O=C(NCc1ccco1)c1ccc(OCC2CCCO2)cc1 (stereo not given) in the list: i | ? | i | 1.3% | 1e-09
CCc1cc2c(=O)c(-c3nc4ccccc4[nH]3)coc2cc1OC(=O)N1CCOCC1 in the list: i | . | i | . | 1e-09

(next part)
| molecule | Resorufin autofl | TSHR ag | A488 fluor | AID923 | A647 autofl |
| --- | --- | --- | --- | --- | --- |
| CCOC(=O)CSc1nc2c(c(=O)[nH]c(=O)n2C)n1C/C=C(/C)Cl | i | 7% | i | -2.8% | 9.4e-09 |
| CCNc1nc(NCC)nc(OCCOC(=O)c2ccccc2)n1 | i | 0% | i | 0.3% | 1.9e-08 |
| CCCCn1nnc(NC(=O)c2ccco2)n1 | i | ? | i | -0.4% | 2.2e-08 |
| COc1ccc(OC)c(NC(=O)CSC2=C(C#N)C(c3ccco3)C3=C(CCCC3=O)N2)c1 (stereo not given) | i | . | i | . | 3.1e-08 |
| COc1ccc(CN2CC(C(=O)NCCCOC(C)C)CC2=O)cc1 (stereo not given) | i | 7% | i | -0.3% | 1e-09 |
| CCOC(=O)N1CCC(N2C(=O)c3ccc(C(=O)NCc4ccco4)cc3C2=O)CC1 | . | -4% | . | 1.3% | . |
| CC(=O)Nc1cnn(Cc2ccc(Br)cc2)c1 | i | -7% | i | 1.1% | 4.8e-09 |
| COc1cc(OC)cc(C(=O)NC2CC3CCC(C2)N3Cc2ccco2)c1 (stereo not given) | i | 12% | i | 0.7% | 9.5e-09 |
| CCCN(CCC)CCNc1c(N2CCN(C(=O)OCC)CC2)c(=O)c1=O | i | -4%[11.4 µM] | i | -0.9% | 1.2e-08 |
| COCCCNC(=O)CC(NS(=O)(=O)c1ccc(OC)cc1)c1ccc(OC)cc1 (stereo not given) | i | 1% | i | 1.5% | 2.2e-08 |
| CCOC(=O)c1ccc2[nH]c3c(c2c1)CCCCC3=O | i | 4% | i | 6.8% | 3.7e-08 |
| CCn1c(SCC(=O)c2cc(C)n(-c3ccc(C(=O)OC)cc3)c2C)nnc1-c1cccnc1 | i | 12% | i | -0.5% | 1e-09 |
| CCOc1ccc(Br)cc1S(=O)(=O)N1CC(C)OC(C)C1 (stereo not given) | i | . | i | -1.0% | 1e-09 |
| COC(=O)c1ccccc1NC(=O)Cn1cnc2c1c(=O)n(C)c(=O)n2C | i | 6% | i | -0.8% | 1.6e-08 |
| COc1cc(C(c2nnnn2C2CCCC2)N2CCc3ccccc3C2)ccc1O (stereo not given) | i | ? | i | 0.9% | 5.5e-09 |
| Cc1nc(NCCCO)c(C#N)c2c1COC(C)(C)C2 | i | . | i | . | 6.6e-08 |
| O=C(Nc1cccc(-c2nnn(CC(=O)N3CCc4ccccc4C3)n2)c1)C1CCC1 | i | 6% | i | 0.1% | 1e-09 |
| Cn1cnnc1SCC(=O)c1cc2ccccc2oc1=O | i | -12% | i | 7.1% | 2.6e-08 |
| CCOc1ccccc1NC(=O)Cn1nnc(C(=O)NCc2ccco2)c1N | i | ? | i | 0.0% | 1e-09 |
| O=C(OC(C(=O)NC1CCCC1)c1ccc(F)cc1)c1ccno1 (stereo not given) | i | 1% | i | 1.6% | 1.2e-08 |
| Cc1ccc(NC(=O)c2ocnc2C)cc1Cl | i | -7% | i | -0.1% | 5.5e-09 |
| COc1ccccc1NC(=O)CSc1nc2ncccc2[nH]1 | . | 3%[11.4 µM] | . | -0.1% | . |
| O=C(NCCN1CCc2ccccc2C1)C1CCN(S(=O)(=O)N2CCC3(CC2)OCCO3)CC1 | i | -7% | i | 0.2% | 1e-09 |
| COc1cccc(NC(=O)c2ncn[nH]2)c1 | i | . | i | 0.7% | 1.7e-08 |
| Clc1cccc(Cl)c1C(Nc1nncs1)Nc1nncs1 | i | 0%[11.4 µM] | i | -3.2%[11.5 µM] | 2.8e-08 |
| Cc1csc(NC(=O)CSc2nc3sc(C)c(C)c3c(=O)[nH]2)n1 | i | 1% | i | -2.0% | 1e-09 |
| O=C(c1ccc(CS(=O)(=O)c2ccc(Br)cc2)o1)N1CCOCC1 | . | -9% | . | -0.7% | . |
| O=C(c1cc2ccccc2oc1=O)N1CCSC1c1ccco1 (stereo not given) | i | 11% | i | -0.8% | 4.8e-09 |
| O=C1NC2(CCCc3ccccc32)C(=O)N1Cc1nnc(-c2ccccc2Br)o1 (stereo not given) | i | . | i | -2.4% | 1e-08 |
| CC1(C)Oc2ccc(C(=O)N3CCOCC3)cc2N(CC(=O)Nc2ccccc2)C1=O | i | 6% | i | -1.5% | 4.6e-08 |
| COCCCn1c(Cc2ccccc2)nnc1SCC(=O)N1CCCCC1 | i | -1% | i | -0.1% | 8.2e-09 |
| CCN(CC)C(=O)CSc1nnc(-c2cccnc2)n1CCc1ccccc1 | i | -5% | i | -0.2% | 1.5e-08 |
| CCCOC(=O)c1ccc(Oc2cn[nH]c2-c2ccc(OCC)cc2O)cc1 | i | 11% | i | 1.0% | 3.5e-08 |
| CCCSC1=C(C#N)C(c2ccc(Cl)cc2Cl)CC(=O)N1 (stereo not given) | . | ? | . | -2.8% | . |
| COC(=O)CSc1nnnn1-c1ccccc1 | i | 2% | i | 0.0% | 1e-09 |
| O=C(OCc1c(Cl)cccc1Cl)c1cnccn1 | i | 0% | i | 1.0% | 1e-09 |
| O=C(NC(=O)c1ccccc1)OCC(F)(F)F | . | -11% | . | -0.2% | . |
| CCOC(=O)c1c(C)nc(-c2ccccc2)nc1NC(=O)C(C)C | i | ? | i | -0.3% | 1e-09 |
| COC(=O)CC1=C(C(=O)OC)C(c2cccs2)C(C#N)=C(N)O1 (stereo not given) | i | 9% | i | 3.4% | 1e-09 |
| O=C(c1cc2nc(C3CC3)cc(C(F)F)n2n1)N1CCOCC1 | i | 2% | i | 3.3% | 2.7e-09 |
| COc1ccc(-c2noc(CCC(=O)NCc3cccnc3)n2)cc1OC | i | -2% | i | 1.8% | 6.5e-09 |
| C=CC(=O)CC | . | ? | . | 1.7% | . |
| CCCn1c(CN(C)Cc2ccccc2)nc2c1c(=O)n(C)c(=O)n2C | i | ? | i | -0.1% | 1e-09 |
| CCC1CCCCN1S(=O)(=O)c1ccc(S(=O)(=O)N2CCN(S(=O)(=O)CC)CC2)cc1 (stereo not given) | i | . | i | 1.0% | 1.5e-09 |
| [O-]/[N+](=N\O)c1ccccc1 | . | ? | . | -1.1% | . |
| O=C(NCCc1ccccn1)c1n[nH]c(=O)c2ccccc12 | i | -2% | i | -0.9% | 1e-09 |
| COc1c(Cl)cc(Cl)cc1/C=N/n1cnnc1 | i | ? | i | 3.7% | 2.1e-08 |
| Cc1cc(C)c(C#N)c(SCC(=O)OC2CCCCC2)n1 | i | ? | i | -1.4% | 1.3e-09 |
| Cc1ccc(C(=O)c2ccccc2C(=O)O)c(O)c1 | . | 1% | . | -1.0% | . |
| COc1cc(C2C(C(=O)c3cccs3)=C(O)C(=O)N2Cc2ccco2)cc(OC)c1OC (stereo not given) | . | -2%[11.4 µM] | . | 0.7% | . |
| CCCCCn1c(N2CCC(C(N)=O)CC2)nc2c1c(=O)[nH]c(=O)n2C | i | -9% | i | 0.0% | 2.5e-09 |
| COC(=O)[C@@]1(Cc2ccc(F)cc2)[C@H]2c3cc(C(=O)N4CCCC4)n(CCc4ccccn4)c3C[C@H]2CN1C(=O)c1ccccc1 | . | ? | . | -1.3% | . |
| C1=C(c2ccccc2)Nc2nnnn2C1 | i | 1% | i | 10% | 3.3e-09 |
| CCc1c(C)nc2ncnn2c1N1CCC(C(=O)Nc2ccccc2)CC1 | i | -10% | i | -2.6% | 5.8e-08 |
| Cn1c(Cn2c(=O)sc3ccccc32)nnc1SCC(N)=O | . | ? | . | -0.6% | . |
| C=CCN=C(NC#N)SCc1ccccc1Cl | i | 24% | i | -1.6% | 1e-09 |
| C=CCN(c1ccc(C(N)=O)cc1)S(C)(=O)=O | i | 1% | i | -0.3% | 5.7e-09 |
| O=C(NCc1ccc2c(c1)OCO2)c1ccc(COc2cccc(Cl)c2)o1 | i | ? | i | 1.3% | 1e-09 |
| CN(C)CCCN1C(=O)C(=O)/C(=C(/O)c2ccc(OCc3ccccc3)cc2)C1c1cccnc1 (stereo not given) | i | -2% | i | 0.1% | 4.2e-09 |
| CCOc1ccc(Nc2cc(C)nc(-n3nc(C)cc3C)n2)cc1 | i | ? | i | -0.3% | 4.1e-08 |

Additional results:
| molecule | Resorufin autofl | TSHR ag | A488 fluor | AID923 | A647 autofl |
| --- | --- | --- | --- | --- | --- |
| Cc1nc(NC(=O)CSc2ccccc2N)sc1C | i | 0% | i | -0.2% | 2.7e-09 |
| COc1ccccc1CNC(=O)c1oc2ccc(S(=O)(=O)N3CCCC3)cc2c1C | i | 19% | i | -0.7% | 1.7e-08 |
| CCCC(=O)N1CCN(c2ccc(C(=O)c3ccc(OC)c(Br)c3)cc2F)CC1 | . | 0% | . | -0.5% | . |
| COc1ccc(-c2nc(-c3ccc(Br)cc3)no2)c(OC)c1 | i | -9% | i | -2.5% | 1.3e-08 |
| CN(C)C(=O)c1ccc(-c2nc(Nc3ccncc3)c3ccccc3n2)cc1 | i | 3% | i | -1.2% | 2.5e-08 |
| COC(=O)CNC(=O)c1c(C)cc(=O)oc1C | i | . | i | . | 6.4e-09 |
| COc1ccccc1-c1nc(C#N)c(N2CCC(Cc3ccccc3)CC2)o1 | i | ? | i | 0.9% | 1.5e-08 |
| COc1ccccc1CNC(=O)C1CCC(CNc2c(N3CCOCC3)c(=O)c2=O)CC1 (stereo not given) | . | -5% | . | -0.3% | . |
| Cc1ccccc1NC(=O)NCCCN1CCN(C2CCCCC2)CC1 | i | 2% | i | 1.1% | 3.1e-08 |
| CCn1c(SCC(=O)Nc2sc(C)c(C)c2C#N)nnc1C(C)C | i | 5% | i | 1.2% | 4.4e-09 |
| CCOC(=O)CCc1nn(C)c(=O)c2ccccc12 | i | 3% | i | 1.3% | 1e-09 |
| CCCNS(=O)(=O)c1ccc(NC(=O)c2ccccn2)cc1 | i | 4% | i | -2.7% | 1.6e-08 |
| COc1cccc(OC)c1OCCCOc1c(OC)cccc1OC | i | 16% | i | -0.1% | 1e-09 |
| O=C(Cc1cccs1)NCc1ccncc1 | i | 4% | i | 1.8% | 2.2e-08 |
| NC(=O)CSc1nnc(-c2ccc(S(=O)(=O)N3CCCC3)cc2)n1Cc1ccco1 | i | 1% | i | -1.8% | 5.8e-09 |
